Bioassay records: PubChem, National Center for Advancing Translational Sciences (NCATS)
LT uptake inh – qHTS Assay for Anthrax Lethal Toxin Internalization; Cells, anthrax lethal toxin internalization, FRET ratio (460/530); Potency, µM (titrated, usually from 40 µM), for inactives: at the highest dose activity change, negative = inhibition, usual class: inhibitors; actives 0.67% (n = 70,000); active = well fitted falling ratio curve with the 530 nm signal flat; inconclusive = other ratio curves, or a change in one channel alone; inactive = flat curves in the ratio and both channels; the % refers to the ratio; note: % is set by controls: 0 for no effect and ±100 for the full control effect; nearly all actives have a fitted effect of over 50% in size; tested in ME-180 cells; beta-lactamase reporter
Prx2 Sm inh – Schistosoma Mansoni Peroxiredoxins (Prx2); Schistosoma mansoni peroxiredoxin 2 (Prx2); S. mansoni Prx2 activity coupled to TGR/GSH (TGR is thioredoxin glutathione reductase), NADPH fluorescence loss, qHTS; some inactives read as strong as hits; Potency, µM; actives 0.07% (n = 65,000); AID 448, 2006; active means full or partial inhibition curve with a strong effect at the top dose; inconclusive means weaker partial or single-point curve; inactive means no accepted curve; note: series up to 57 µM; many of its hits are not listed in these tables
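Activity is read as the drop in NADPH fluorescence (365/450 nm), recorded every 30 sec for 8 min after H2O2 addition. Prx2 is coupled to TGR-driven NADPH oxidation through glutathione, in phosphate buffer pH 7.4.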
The depositor's hits bear a star; ? = inconclusive; . = not tested or not shown; [ ] = another dose, or the depositor's remark. Potency is the fitted concentration of half-maximal effect. A portion of the library; count on the stated rates, not on these rows.

SMILES | LT uptake inh | Prx2 Sm inh
Cc1cnc(-c2nnc(N(C)C(=O)c3ccccn3)s2)cn1 | 9% | >57
COC(=O)c1ccc(NC(=O)C2CCN(S(C)(=O)=O)CC2)cc1 | 15% | >57
CCC(C)NC(=O)CCS(=O)(=O)c1ccc(Br)s1 (centres undefined) | 0% | >57
COC(=O)CNC(=O)c1c(-c2ccccc2Cl)noc1C | -18% | >57
O=c1c(-c2ccc(Cl)cc2)nc2cnc(N3CCNCC3)nc2n1Cc1cccs1 | ? | >57
Cc1cc(C)nc(SCNC(=O)c2ccc(F)cc2)n1 | -21% | ?
CN1CCN(CC(=O)C23CC4CC(CC(C4)C2)C3)CC1 | -3% | >57
CCN[C@@H]1C[C@H](C)S(=O)(=O)c2sc(S(N)(=O)=O)cc21 | ? | >57
Cc1nc2cc(S(=O)(=O)N(C)C)ccc2n1-c1ccccc1 | 6% | >57
CCCN(CCC)CCc1ccc(O)c(O)c1 | 1% | >57
CCCOc1ccc(/C=c2\sc3nc(-c4ccco4)nn3c2=O)cc1OCC | 8% | >57
CCn1c(SCC(N)=O)nnc1-c1cc2c(C)nn(-c3ccccc3)c2s1 | -6% | >57
CCCC(=O)n1nc(-c2ccc(OC)cc2)nc1N | -11% | >57
Cc1ccc(N2CCCn3c2nc2c3c(=O)n(CCN3CCOCC3)c(=O)n2C)cc1 | -12% | >57
c1cc2c(cc1Oc1nc(N3CCOCC3)nc(N3CCOCC3)n1)OCO2 | 2% | >57
Cc1onc(-c2ccccc2)c1C(=O)Nc1c(C)n(C)n(-c2ccccc2)c1=O | 17% | >57
CC(=NC1CCCCC1)C1=C(O)c2ccccc2C1=O | 1% | .
CN1C(=O)CC2(CC(=O)N(Cc3ccccc3)C2)C1=O (centres undefined) | -2% | >57
Cc1nnc(N2CCN(Cc3ccccc3)CC2)[nH]c1=O | 7% | >57
Cc1ccc(NC(=O)N2CCC(NC(=O)c3ccccc3C)CC2)cc1 | 7% | >57
O=C(CSc1nc(O)cc(=O)n1-c1ccccc1)NCc1ccccc1 | 7% | >57
Cn1c(SCC2CCCCC2)nnc1-c1ccncc1 | ? | >57
O=C(Oc1cccnc1)c1cc2ccccc2oc1=O | 1% | >57
CS(=O)(=O)N1CCN(c2ccccc2NC(=O)Cc2ccc(Cl)cc2)CC1 | . | >57
COc1ccc(CSc2nnnn2Cc2ccccc2)cc1OC | -3% | .
O=C(CSc1ncnc2c1oc1ccccc12)N1CCc2ccccc2C1 | 7% | >57
Cn1c(=O)c2c(ncn2CC(=O)Nc2nc(-c3ccccc3Cl)cs2)n(C)c1=O | 11% | >57
O=C(CCCc1c[nH]c2ccccc12)N1CCCCCC1 | 8% | >57
Clc1cc2c(c(CSC3=NCN(CC4CC4)CN3)c1)OCOC2 | -6%[8 µM] | >57
CCc1nc(SCC(=O)Nc2cccc(C(F)(F)F)c2)c2c(=O)n(C)c(=O)n(C)c2n1 | ? | >57

Reformatted: five of the compounds above.
mol	LT uptake inh	Prx2 Sm inh
Cn1c(SCC2CCCCC2)nnc1-c1ccncc1	?	>57
O=C(Oc1cccnc1)c1cc2ccccc2oc1=O	1%	>57
CS(=O)(=O)N1CCN(c2ccccc2NC(=O)Cc2ccc(Cl)cc2)CC1	.	>57
COc1ccc(CSc2nnnn2Cc2ccccc2)cc1OC	-3%	.
O=C(CSc1ncnc2c1oc1ccccc12)N1CCc2ccccc2C1	7%	>57

Other records.
SMILES | LT uptake inh | Prx2 Sm inh
COc1ccc(C2CC(c3ccc(Cl)c(Cl)c3)Nc3nc(N)nn32)cc1 (centres undefined) | ? | >57
c1ccc(C(c2ccccc2)N2CC3(CCNCC3)C2)cc1 | 10µM* | >57
Clc1ccc(-c2nnc3sc(-c4ccccn4)nn23)cc1 | 5% | >57
COC(=O)C1=C(N)Oc2cc(C)n(Cc3cccnc3)c(=O)c2C1c1ccc(OC)c(OC)c1 (centres undefined) | -8% | >57
CC(C)C[C@H](NC(=O)N1CCCCCC1)C(=O)N[C@H](Cc1cn(C)c2ccccc12)C(=O)N[C@H](Cc1ccccn1)C(=O)O | ? | >57
Cc1sc2ncn3cnnc3c2c1C | -9% | >57
O=C(COC(=O)c1cccc(C(=O)OCC(=O)NC2CCCCC2)n1)NC1CCCCC1 | 0% | >57
C[C@@H](Cc1ccccc1)Nc1ncnc2c1ncn2[C@@H]1O[C@@H](CO)[C@H](O)[C@@H]1O | 11% | >57
CCN(CC)C(=O)CSc1nc2ncc(Cl)cc2[nH]1 | . | >57
C[C@H](CCC(=O)NN)[C@@H]1CC[C@@H]2[C@H]3CC[C@H]4C[C@@H](O)CC[C@@]4(C)[C@@H]3CC[C@]21C | -9%[8 µM] | >57
CCc1cc(/C(Cc2ccc3ccccc3n2)=N\O)c(O)cc1O | ? | >57
CCn1c(C)c(C(C)=O)c(N2CCN(c3ccccn3)CC2)nc1=S | -14% | >57
O=C(c1cn(CC(=O)N2CCCCC2)c2ccccc12)C1CC1 | 2% | >57
Cc1ccc(N(C(C)C(=O)N2CCCCC2)S(C)(=O)=O)cc1C (centres undefined) | -11% | >57
Cc1cccc(Cl)c1NC[C@H](O)CN1CCN(C)CC1 | -11%[8 µM] | >57
CN(C)C(CNC(=O)c1cccs1)c1cccnc1 (centres undefined) | 0% | >57
CCc1sc(C(=O)N2CCN(S(C)(=O)=O)CC2)cc1Br | 6% | >57
CCCS(=O)(=O)c1nnnn1-c1cccc(OC)c1 | 3.2µM* | >57
Cc1cncn1CCc1nc2c3ccccc3nc(=S)n2[nH]1 | 9% | >57
Cc1nn(-c2ccc(C(=O)O)cc2)c(N)c1-c1ccccc1 | ? | >57
Cc1cccc(C)c1NC(=O)N1CCC(n2cnc3ccccc32)CC1 | 3% | >57
C=CCn1c(=O)c2ccccc2n2c(SC(C)C(=O)Nc3nc(-c4ccccc4)cs3)nnc12 (centres undefined) | -4% | >57
CC12CCC3(CO)COC(c4ccccc4O1)C2C3 (centres undefined) | -2% | >57
CCOc1ccccc1NC(=O)CSc1nc2c(c(=O)n1C)SC(C)C2 (centres undefined) | 1% | >57
CCOc1cccc(-c2nc(C(N)=O)c3[nH]c(=O)n(-c4cccc(Cl)c4)c3n2)c1O | 0% | >57
FC(F)(F)c1nnc2sc(-c3ccccn3)nn12 | 8% | >57
CC(=O)Nc1ccc(C(=O)CSc2nc3ccccc3n2CC(=O)N2CCCC2)cc1 | 6% | >57
Cc1c(N=CC=Nc2c(C)n(C)n(-c3ccccc3)c2=O)c(=O)n(-c2ccccc2)n1C | -3% | .
CCOC(=O)N1CCN(C(=O)Cn2ncc3ccccc32)CC1 | -2% | >57
CCCCCCn1cnc2c(c1=O)c1nc3ccccc3nc1n2Cc1cccs1 | 2% | >57

Some of these compounds in order of molar mass, low to high:
SMILES | LT uptake inh | Prx2 Sm inh
CCCC(=O)n1nc(-c2ccc(OC)cc2)nc1N | -11% | >57
COC(=O)c1ccc(NC(=O)C2CCN(S(C)(=O)=O)CC2)cc1 | 15% | >57
COc1ccc(C2CC(c3ccc(Cl)c(Cl)c3)Nc3nc(N)nn32)cc1 (centres undefined) | ? | >57
CCOc1ccccc1NC(=O)CSc1nc2c(c(=O)n1C)SC(C)C2 (centres undefined) | 1% | >57
CCOc1cccc(-c2nc(C(N)=O)c3[nH]c(=O)n(-c4cccc(Cl)c4)c3n2)c1O | 0% | >57
CCc1nc(SCC(=O)Nc2cccc(C(F)(F)F)c2)c2c(=O)n(C)c(=O)n(C)c2n1 | ? | >57

Carrying on:
SMILES | LT uptake inh | Prx2 Sm inh
CCOC(=O)N1CCN(c2ccc(C(=O)c3cccc(F)c3)cc2)CC1 | ? | >57
COc1ccc(N2C(=O)C(Cl)=C(N3CCCC3)C2=O)cc1 | ? | >57
O=C1CC(c2cccnc2)c2cc3c(cc2N1)OCO3 (centres undefined) | 8% | >57
O=C(CCN1CCOCC1)Nc1ccc2c(c1)CCC2 | . | >57
Cn1c(-n2c(CCN3C(=O)c4ccccc4C3=O)nc3ccccc3c2=O)nc2ccccc21 | 4% | >57
CCOCC(=O)Nc1cccc(C(=O)OCC)c1 | ? | >57
Cc1ccc(S(=O)(=O)Nc2c(C)n(C)n(-c3ccccc3)c2=O)cc1C(=O)NCc1ccccn1 | -5% | >57
CCCc1nc(SCC(=O)Nc2cc(Cl)ccc2OC)c2c(=O)n(C)c(=O)n(C)c2n1 | -15% | >57
COc1ccccc1C(=O)Nc1ccccn1 | 8% | >57
CCCN1C2=NS(=O)(=O)CCN2c2ccccc21 | 6% | >57
CCOC(=O)N1CCN(C(=O)c2c(-c3ccccc3)noc2C)CC1 | 9% | >57
COc1ccc(C)cc1S(=O)(=O)N1CCC(C)CC1 | -2% | >57
CC(C)(C#N)NC(=O)c1ccco1 | 1% | >57
Cc1ccc(NC(=O)CN(C)S(=O)(=O)c2cccc3nsnc23)cc1 | -15% | >57
CCOC(=O)N1CCC(NS(=O)(=O)c2cc(Br)cnc2N)CC1 | 13% | >57
O=C(Cc1ccccc1)N1CCC(c2nc(-c3ccc(F)cc3)no2)CC1 | -13% | >57
C/C(Cl)=C/CCl | -7% | .
Cc1ccc(C2NC(=O)NC3=C2CCc2ccccc23)cc1 (centres undefined) | 0% | >57
CCCS(=O)(=O)N1CCCC(C(=O)NCCN2CCC(Cc3ccccc3)CC2)C1 (centres undefined) | -12% | >57
Cn1c(CCNC(=O)OC(C)(C)C)n[nH]c1=S | 7% | >57
CCOc1ccc(Cc2nc(-c3nonc3N)no2)cc1OCC | -8% | >57
O=C(NC1CCCCC1)c1noc2c1CCCCC2 | -22% | >57
Cc1occc1-c1nnc(SCC(=O)Nc2ccc3c(c2)OCO3)n1CC1CCCO1 (centres undefined) | -10% | >57
CCOc1cc(-c2noc(-c3cccnc3)n2)ccc1OC | 1% | >57
CSc1ccc(CNC2CN3CCC2CC3)cc1 (centres undefined) | -9% | >57
CC(=O)Nc1nc(SCCCc2ccccc2)n[nH]1 | 8% | >57
O=C(O)c1oc2ccccc2c1CSc1ccccn1 | -3% | >57
COc1ccc(S(=O)(=O)N2CCOCC2)cc1C(=O)Nc1cc(C)on1 | -14% | >57
CCc1nnc(NC(=O)C2CCC2)s1 | 12% | >57
CSc1nc(N2CCOCC2)c2ccccc2n1 | ? | >57
Cc1cc(=O)n2[nH]c(C)c(-c3ccc(Cl)cc3)c2n1 | -6% | .
CCOC(=O)C1CCN(C(=O)Nc2ccc3oc(C)nc3c2)CC1 | 1% | >57
Cc1cccc(N2C(=O)CC(=O)NC2=O)c1 | -3% | >57
CCc1nnc(NC(=O)CSc2nnnn2-c2cccc(C(=O)OC)c2)s1 | -12% | >57
CCOc1ccc(NC(=O)CN(C)c2nnnn2-c2ccccc2)cc1OCC | 4% | >57
COc1ccc2c(c1)CC(C1(O)C(=O)N(C)c3ccccc31)C2=O (centres undefined) | -2% | .
CC(C)c1cc(C(=O)Nc2cccnc2)no1 | 2% | >57
COc1ccc(S(=O)(=O)N(C)C2CCN(C)CC2)cc1 | -12% | >57
CC(C(=O)NCc1ccco1)n1nc(-c2ccccc2)c2cc(Cl)ccc21 (centres undefined) | ? | >57
COc1cccc(N2C(=O)C3ON(c4ccccc4)C(c4cccs4)C3C2=O)c1 (centres undefined) | -13% | >57
COc1cc2c(C(=O)N3CCN(C)CC3)c(C)n(C)c2cc1Br | . | >57
COC(=O)c1ccccc1NC(=O)C1CCN(C(=O)c2cc(OC)cc(OC)c2)CC1 | -22% | >57
COc1ccc(OC)c(C(=O)CSc2nc3ncccc3[nH]2)c1 | . | >57
O=C(NC1CS(=O)(=O)CC1NCc1ccco1)c1ccccc1 (centres undefined) | -10% | >57
O=C(Nc1nccs1)c1ccc(S(=O)(=O)c2ccccc2)cc1 | 8% | >57
CC(C)Oc1cccc(C(=O)Nc2ccccc2N2CCOCC2)c1 | -13% | >57
COc1ccc(-n2nnnc2SCC(=O)c2ccc(OC)c(OC)c2)cc1 | 0% | >57
CC(=O)OC[C@@H]1O[C@@H](O/N=C2/C[C@@H](O)[C@@H](O)[C@@H]3[C@@H]4C(=O)N(c5cccc(Oc6ccccc6)c5)C(=O)[C@H]4CC[C@@H]23)[C@H](OC(C)=O)[C@H](OC(C)=O)[C@@H]1OC(C)=O | -1%[8 µM] | .
Cc1cc2cc3c(=O)[nH]c(=O)[nH]c3nc2cc1C | 0%[8 µM] | >57
CCCCC(=O)N1CC2(C)CN(C(=O)CCCC)CC(C)(C1)C2=O | -8% | >57
Cc1ccc2cc(CN(CC3CCCO3)S(=O)(=O)c3cccc4nsnc34)c(=O)[nH]c2c1 (centres undefined) | -16% | >57
O=C(COC(=O)CN1C(=O)C2CC=CCC2C1=O)Nc1cc(C(F)(F)F)ccc1N1CCOCC1 (centres undefined) | ? | >57
COc1ccc(-n2ccnc2SCC(=O)Nc2ccccc2)cc1 | -2% | >57
CC1CCN(c2nc(-c3ccccc3)c(C#N)c(=O)[nH]2)CC1 | -11% | >57
O=C(Cn1cnc2c(cnn2-c2ccccc2)c1=O)N1CCOCC1 | 5% | >57
CCSc1nnc(NC(=O)c2ccc(C)o2)s1 | 11% | >57
CS(=O)(=O)c1ccc2nc(NC(=O)Cc3ccccc3)sc2c1 | -14% | >57
Cc1cc(C(=O)N(C)CC(=O)Nc2ccccc2C(F)(F)F)c(C)o1 | 6% | >57

Profiles, looked up by structure:
CCSc1nnc(NC(=O)c2ccc(C)o2)s1 across the screens: LT uptake inh: 11%; Prx2 Sm inh: >57
COc1ccc(-n2nnnc2SCC(=O)c2ccc(OC)c(OC)c2)cc1 across the screens: LT uptake inh: 0%; Prx2 Sm inh: >57
